From PubChem
CapD inh = inhibitors of Bacillus anthracis CapD enzyme; 0.23% of 140,000 active; z-score (no concentration beside the values); purified CapD enzyme, fluorescence intensity read-out; stronger effect = lower value; some hits fall short of the stated cut;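 active = z-score under -4 in either of two replicates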;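 also: stock transfer was 100 nL into about 40 µL; score is relative to mean and spread of the plate; one replicate is shown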
AID504770 = growth inhibitors of E. coli YBA685 in a screen for V. cholerae RctB (chromosome II replication) inhibitors | E. coli YBA685 rctB-dependent plasmid, OD600 growth, 3 h; stronger effect = lower value | 0.27% of 130,000 active | z-score (test concentration not listed);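 active = z-score under -2 on both plates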;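 also: wells of about 30 µL received 100 nL stock; score is relative to mean and SD of the test wells; the first replicate is given; strong numbers were not always called active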
* = called active by the depositor; / = not tested or not shown.

Screens in order: CapD inh | AID504770
- CC1=C(C(=O)OC2CCCC2C)C(c2cc3c(cc2Br)OCO3)NC(=O)N1 (stereo not given)
→ 0.005 | /
- CCC(=O)Nc1cccc(NC(=O)CSc2nnnn2C(C)C)c1
→ / | 0.9
- Cc1ccc(C(=O)N/C(=C/c2cccs2)C(=O)NCCc2c[nH]c3ccccc23)cc1C
→ -0.38 | /
- NC(=O)C1CCN(S(=O)(=O)c2ccc3[nH]cc(C(=O)O)c(=O)c3c2)CC1
→ 1.55 | /
- CC(C)c1ccccc1C=NCC(=O)O
→ / | -1
- O=C(Cc1ccc(-c2ccccc2)cc1)NCc1ccco1
→ / | 0.25
- C/C(=C\C(=O)NC1CC(C)(C)NC(C)(C)C1)NC1CC(C)(C)NC(C)(C)C1
→ 0.355 | 0.05
- CC1(CCC(=O)O)NNC(=S)NN1
→ / | -0.6
- COc1ccccc1OCCn1c(=O)c2cc3c(=O)n(CCOc4ccccc4OC)c(=O)c3cc2c1=O
→ -0.945 | 0.25
- CC1CCCCN1CCNS(=O)(=O)c1ccc2c(c1)n(C)c(=O)c(=O)n2C (stereo not given)
→ 1.8 | 0
- CCOC(=O)Cc1csc(NC(=O)COCC(=O)O)n1
→ -0.04 | /
- Cc1[nH]c(C)c(S(=O)(=O)NC2CCCc3ccccc32)c1C(=O)N1CCCC1 (stereo not given)
→ 0.735 | -0.75
- O=C(O)CC1SC(=O)N(c2ccccc2)C1=O (stereo not given)
→ / | -0.3
- O=C(c1cccs1)N1CCC(Cc2ccccc2)CC1
→ / | -0.6
- CN(C)C(=O)COC(=O)c1ccccc1Sc1ccccc1C#N
→ / | -0.4
- CCSc1nnc(NC(=O)CSc2nc3c(c(=O)n2-c2ccc(Br)cc2)SCC3)s1
→ -0.54 | /
- O=C(C(Cc1ccccc1)n1cccc1)N(CCc1ccccc1)Cc1ccccc1 (stereo not given)
→ -0.545 | -1.75
- COc1ccc(S(=O)(=O)N2Cc3ccccc3CC2C(=O)N2CCCCCC2)cc1OC (stereo not given)
→ -0.06 | 0.9
- CN(C)S(=O)(=O)c1cccc(COC(=O)c2ccc3c(c2)OCO3)c1
→ / | 0.05
- NC(=O)C1CN(C(=O)CSc2nnc(-c3cccnc3)n2-c2ccccc2)c2ccccc2O1 (stereo not given)
→ / | -0.15
- COc1ccc(NC(=O)Cn2cnc3ccccc3c2=O)cc1
→ 0.02 | 0.8
- COc1ccccc1Cn1cccc1C1=NC(C(C)C)CO1 (stereo not given)
→ 0.305 | 0.25
- N#Cc1cccc(CS(=O)(=O)c2cccs2)c1
→ -0.12 | -0.7
- Cc1c(C(=O)Nc2ccc(F)cc2F)sc2ncnc(N3CCCCC3)c12
→ 0.815 | /
- O=C(CCN1CCN(C2c3ccccc3-c3ccccc32)CC1)Nc1cccc(C(F)(F)F)c1
→ 0 | -0.55
- CCOCCOC(=O)C1=C(C)NC(=O)CC1c1ccccc1Cl (stereo not given)
→ -0.085 | /
- COc1cccc(OCC(O)CNC(C)c2ccccc2)c1 (stereo not given)
→ -0.35 | 2.55
- O=c1sc2c(s1)SCSCS2
→ / | -0.5
- CC12CCC(=O)N1C(C(=O)OCC(=O)Nc1cccc(Br)c1)CS2 (stereo not given)
→ / | 2.25
- CC1CCCCN1C(=O)COc1ccc(NC(=O)c2ccco2)cc1 (stereo not given)
→ / | -1
- COc1ccccc1N1CCN(C(=O)c2ccc(N)cc2)CC1
→ 0.1 | /
- O=C1Cc2cc(S(=O)(=O)N3CCCC3c3ccc4c(c3)OCCO4)ccc2N1 (stereo not given)
→ / | 0.55
- Cn1nc(C(=O)NCCNc2ncc(C(F)(F)F)cc2Cl)c2ccccc2c1=O
→ / | -0.4
- CCOC(=O)C1CCN(C(c2cc3ccc(OC)cc3n3nnnc23)c2nnnn2C2CCCC2)CC1 (stereo not given)
→ / | 2.2
- CN(C)C(=O)NC1c2ccccc2-c2ccccc21
→ 0.59 | -0.4
- NC(=O)C1CCN(C(=O)c2ccc3c(=O)n(-c4ccccc4)c(SCC(=O)c4ccc(Cl)cc4)nc3c2)CC1
→ -1.02 | /
- O=c1[nH]c2ccccc2c(O)c1Br
→ / | 0.15
- O=C1NC(c2cc(Br)cs2)Nc2ccccc21 (stereo not given)
→ 13.9 | /
- COC(=O)c1scc(C)c1NC(=O)CC1NCCNC1=O (stereo not given)
→ 0.52 | -0.65
- O=C1NC2(CCCC2)C(=O)N1CCC(=O)N(CC1CCCO1)c1nc2ccccc2s1 (stereo not given)
→ / | -0.5
- Cc1cc(C)nc(NS(=O)(=O)c2ccc(NC(=O)/C=C/c3ccccc3)cc2)n1
→ -0.75 | /
- CC(=O)N1c2ccccc2C(C)CC12CCCCC2 (stereo not given)
→ 0.44 | 0.15
- Cc1nc2sc3c(NCc4ccccc4)ncnc3c2c2c1COC(C)(C)C2
→ 15.7 | -0.6
- Cc1cc(=O)c2n(Cc3ccccc3Cl)nc[n+]2[nH]1
→ -0.335 | 0.85
- O=C1N(Cc2ccccc2)c2ccccc2C1(O)c1nnc(-c2ccccc2)o1 (stereo not given)
→ / | -1.15
- C/C(=N\n1c(-c2ccccc2)n[nH]c1=O)c1ccccc1
→ -0.135 | 1.8
- Cc1ccccc1-c1nc2cc(NCc3cccs3)ccc2o1
→ 14.5 | 0.35
- Cc1cc(C)n2nc(-c3ccccc3)cc2n1
→ / | -0.5
- CCOC(=O)c1cc(-c2ccc(OC)c(S(=O)(=O)NC)c2)on1
→ 0.52 | -0.15
- CCn1c2c(c3cc(OCc4ccccc4)ccc31)CCCC2=O
→ 17.7 | 0.2
- C=CCNc1nc(C(=O)OCC(=O)c2cc(C)n(Cc3ccc4c(c3)OCO4)c2C)cs1
→ / | 0.9
- O=C(Nc1ccc(O)cc1C(=O)O)c1ccc2c(c1)C(=O)N(CC1CCCO1)C2=O (stereo not given)
→ -1.34 | -0.85
- Cc1nnc2n(c1=O)N=C(c1ccccc1)CS2
→ -1.2 | -0.55
- CC(C)NCC(O)COc1ccc(Br)cc1 (stereo not given)
→ -0.55 | -0.75
- O=C(COC(=O)c1ccncc1)Nc1ccccc1
→ / | -0.65
- C=C1SC(Nc2cccc(C(F)(F)F)c2)=NC1(C)C
→ 0.06 | /
- O=C(N/N=C/c1cc(Cl)ccc1[N+](=O)[O-])c1ccccc1CCc1ccccc1
→ -0.47 | /
- CCOC(=O)C1CCN(C/C=C/c2ccccc2)CC1
→ -0.085 | -0.55
- CN(C(=O)Nc1ccccc1)n1cnc2ccsc2c1=O
→ -0.16 | -0.85
- O=C(c1cc2c(=O)[nH]c3ccccc3c2s1)N1CCC2(CC1)OCCO2
→ 5.59 | 0.15

(cont.)
Screens in order: CapD inh | AID504770
- Cc1ccc(C)c2c(=O)cc[nH]c12
→ 33.3 | /
- COc1cc2c(cc1OC)C1c3ccccc3NC(=O)CN1CC2 (stereo not given)
→ 0.23 | 0.45
- O=C(NCCOc1ccccc1Cc1ccccc1)c1ccc(Br)cc1
→ 0.2 | -0.15
- COCCNc1c(-c2ccc(N)cc2)nc2ccc(C)cn12
→ / | -0.75
- COc1ccc(C2CC(=O)C3=C(C2)OC(N)=C(C#N)C3c2ccccc2)cc1OC (stereo not given)
→ 0.75 | /
- Cc1cc(-n2cc(Br)c(=O)[nH]c2=O)nc(-c2ccccc2)n1
→ -0.52 | -0.2
- CC1CCCCN1S(=O)(=O)c1ccc2c(c1)oc(=O)n2CC(=O)O (stereo not given)
→ / | -0.3
- O=C1OCCN1/N=C/c1ccc([N+](=O)[O-])o1
→ -0.03 | -4.35*
- CCC(C)Sc1nc2c(c(=O)n1-c1ccc(Cl)cc1)SCC2 (stereo not given)
→ 0.175 | -0.5
- CCCc1cc(C(=O)Nc2sc3c(c2C#N)CCCC3)no1
→ 0.1 | 0.05
- O=c1c(S(=O)(=O)c2ccccc2)cn(Cc2ccc(F)cc2)c2ccc(F)cc12
→ 0.535 | -0.65
- O=C(NCc1ccccc1)N1CCN(c2ccccc2)CC1
→ -0.09 | -0.75
- O=C(O)CCNc1nc(C(F)(F)F)nc2ccccc12
→ -0.005 | 0.2
- O=C(CN1C(=O)c2ccccc2C1=O)NN1C(=O)CSC1=S
→ / | -0.95
- NS(=O)(=O)c1ccc2nc(NC(=O)c3ccc4c(c3)CCCC4)sc2c1
→ -1.15 | 2.05
- CCN(C(=O)CC(C)(C)C)c1ccccc1
→ 0.685 | 0.4
- COC(=O)C1=C(N)CCS1
→ -0.35 | /
- Cc1ccc(S(=O)(=O)c2nc(NCCCN3CCCC3=O)sc2Cl)cc1
→ / | 0.05
- Cc1cccc(N2CCN(C(=O)C3=NNC(=O)CC3)CC2)c1C
→ / | -0.3
- Cc1cc(=O)[nH]c2ccc(S(N)(=O)=O)cc12
→ / | 1.45
- O=C(Nc1ccc(F)cc1)C1CC(=O)N2CCN=C2S1 (stereo not given)
→ 0.03 | -0.2
- COc1ccc(C2CC(c3ccc(C)cc3)=NN2C(=O)CCC(=O)O)cc1OC (stereo not given)
→ -0.415 | /
- Cn1c(C(=O)N2CCC3(CC2)OCCO3)cc2c(=O)[nH]c3ccccc3c21
→ -0.935 | 1.95
- COc1cc(OC)cc(C(=O)NC2CCCCCCC2)c1
→ -0.1 | -1.05
- O=C(CSc1nccc(-c2cccs2)n1)c1cc2ccccc2o1
→ -0.565 | 0.2
- N#Cc1c2c(c(-n3cnc4ccccc43)n3c1nc1ccccc13)CCCC2
→ 0.235 | -0.9
- Cc1ccc(S(=O)(=O)NCc2ccc(C(=O)NCCN3CCN(c4ccccc4)CC3)cc2)cc1
→ 0.12 | 0
- CCCCC#CCCOC(=O)NCCc1cc(OC)cc(OC)c1
→ -0.25 | /
- O=C(N/N=C/c1c(-c2ccccc2)nc2sccn12)c1cc(=O)[nH]c(=O)[nH]1
→ / | 0
- CCCc1nnc(SCC(=O)N2CCCc3ccccc32)n1CC
→ / | 1.1
- CC(C)(C)NC(=O)COc1ccc(CNc2ccc3c(c2)OCCO3)cc1
→ / | -0.15
- N#Cc1ccc(C(=O)N/N=C/c2cn(CC(=O)O)c3ccccc23)c(F)c1
→ -1.95 | 1.7
- CN(C)CC(=O)c1ccc(-c2ccccc2)cc1
→ 5 | -0.65
- Cc1n[nH]c(=O)nc1N1CCc2ccccc2C1
→ -0.035 | 1.85
- CCOc1ccc(C2=C(CN3CCOCC3)C(c3ccccc3)c3ccccc3O2)cc1 (stereo not given)
→ -0.46 | -0.9
- CCSc1nc(C2CC2)cc(-c2ccco2)c1C#N
→ 1.25 | -0.85
- Cn1nc(C(F)(F)F)c(/C=N/O)c1SCc1ccc(C(C)(C)C)cc1
→ -0.46 | /
- Cc1ccc(N2C(=O)C3C4C=CC(CC4)C3C2=O)c([N+](=O)[O-])c1 (stereo not given)
→ -0.255 | /
- CSc1nnc(SCC#N)s1
→ 1.16 | -0.15
- COc1ccc2c(c1)Sc1ccccc1N2CCN(C)C
→ -0.51 | -0.85
- COC(=O)c1ccccc1NC(=O)CCCC(=O)O
→ -0.135 | 0.6
- COc1ccc(C2CC(=O)N2C(C(=O)Nc2c(C)cccc2C)c2ccc3c(c2)OCO3)cc1OC (stereo not given)
→ -0.025 | -0.15
- CN(C)C1(CNC(=O)NC(=O)c2ccccc2)CCCCC1
→ / | 2.05
- CC(=O)Nc1cc(Cl)ccc1Cl
→ / | 1
- COc1ccc(Cn2nnnc2C(c2ccccn2)N2CCc3ccccc3C2)cc1 (stereo not given)
→ / | -0.35
- CC(=O)NC1=NN(C(C)=O)C(C)(CS(=O)(=O)c2ccc(C)cc2)S1 (stereo not given)
→ -0.305 | -0.05
- O=C1CN(C(=O)OCc2ccccc2)C(c2ccccc2)=C2C=C(Br)C=CC2N1 (stereo not given)
→ 0.57 | /
- CN1CCN(NC(=O)c2ccc(-c3ccccc3)cc2)CC1
→ -0.015 | -0.45
- O=C(CSc1nc2cc(C(=O)N3CCC4(CC3)OCCO4)ccc2c(=O)n1Cc1ccc2c(c1)OCO2)c1ccccc1
→ -0.3 | /
- COC(=O)Cc1[nH]nc2c1C(c1c[nH]c3ccccc13)C(C#N)=C(N)O2 (stereo not given)
→ / | 0.1
- CC1CC(N(C(=O)c2cccc(F)c2)c2ccccc2)c2ccccc2N1C(=O)c1cccc(F)c1 (stereo not given)
→ 0.01 | /
- N#Cc1ccc(OCOc2ccc(C#N)cc2)cc1
→ -1.14 | -0.3
- Cc1cc(S(=O)(=O)NC2C3(C)CCC(C3)C2(C)C)c(C)cc1Cl (stereo not given)
→ 0.005 | /
- COC(=O)C1CSC(c2ccc(Cl)cc2)N1C(=O)c1ccccc1 (stereo not given)
→ -1.09 | /
- CCn1cc(S(=O)(=O)c2ccc(C)cc2)c(=O)c2cc(F)c(N3CCOCC3)cc21
→ 18.3 | -0.1
- CC1CCCC(C)N1NC(=O)C1CC(=O)N(c2ccc3c(c2)OCCO3)C1 (stereo not given)
→ / | -0.95
- CCNCc1ccc(-c2ccccc2)o1
→ / | -0.95
- O=S(=O)(C1=CC23CCCC2(C=C(S(=O)(=O)c2ccc(Cl)cc2)C3)C1)c1ccc(Cl)cc1 (stereo not given)
→ 0.06 | -0.25
- Cc1ccc(Cn2c(C(=O)Nc3ccc(F)cc3C)cc3oc(C)cc32)cc1
→ 1.53 | 1.8
